Screening data (PubChem BioAssay)
A1 apoptosis 2 = compounds inhibiting A1, read as caspase activation. caspase activation, % (no concentration beside the values). 24,000 tested, under 10 active. MEF A1-2A-BIM cells, caspase-Glo luminescence, 3 h; percent of clofoctol response, DMSO zero; in the data active means caspase activation above about 5.9%;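 further: wells of about 30 µL received 50 nL stock; the first replicate is given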
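Test system – A1-2A-BIM-expressing MEF cells · Input – 2500 cells/well · Medium – RPMI-1640 growth medium with 10% FBS · Compound dosing – 50 nL pinned compound · Timing – 3 h compound exposure at 37 °C · Technique – Caspase-Glo luminescence (DEVD substrate) · Evaluation – Caspase-3/7 activity from luminescence increase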
* = called active by the depositor.

SMILES	A1 apoptosis 2
C[C@@H]1CN([C@@H](C)CO)C(=O)Cc2cc(NC(=O)c3ccncc3)ccc2O[C@@H]1CN(C)Cc1ccc(Cl)c(Cl)c1	-1.0
Cc1noc(C)c1NC(=O)Nc1ccc2c(c1)CC(=O)N([C@@H](C)CO)C[C@@H](C)[C@H](CN(C)Cc1ccncc1)O2	-0.1
C[C@H](CO)N1C[C@H](C)[C@@H](CN(C)C(=O)Nc2ccc(C(F)(F)F)cc2)Oc2c(NC(=O)Nc3ccccc3)cccc2C1=O	1.4
C[C@@H]1CCCCO[C@@H](CN(C)C(=O)Nc2ccccc2)[C@@H](C)CN([C@H](C)CO)C(=O)c2cc(NC(=O)C3CCCCC3)ccc2O1	0.5
Cc1noc(C)c1S(=O)(=O)Nc1ccc2c(c1)C(=O)N([C@H](C)CO)C[C@H](C)[C@@H](CN(C)S(=O)(=O)c1c(C)noc1C)OCCCC[C@@H](C)O2	0.0
CNC[C@H]1Oc2ccc(NS(=O)(=O)c3ccc(C)cc3)cc2C(=O)N([C@@H](C)CO)C[C@@H]1C	-1.1
Cc1noc(C)c1NC(=O)Nc1ccc2c(c1)C(=O)N([C@H](C)CO)C[C@H](C)[C@@H](CN(C)C(=O)NC1CCCCC1)OCCCC[C@H](C)O2	-0.9
Cc1noc(C)c1NC(=O)N(C)C[C@@H]1OCCCC[C@H](C)Oc2ccc(N(C)C)cc2C(=O)N([C@@H](C)CO)C[C@@H]1C	0.0
CC(C)NC(=O)Nc1ccc2c(c1)C(=O)N([C@@H](C)CO)C[C@H](C)[C@@H](CN(C)C(=O)Nc1ccc3c(c1)OCO3)OCCCC[C@H](C)O2	-0.8
O=C(CCCCCCC(=O)N/N=C/c1cccnc1)NO	0.2
Cc1noc(C)c1NC(=O)N(C)C[C@@H]1OCCCC[C@@H](C)Oc2ccc(NC(=O)NC3CCCCC3)cc2C(=O)N([C@H](C)CO)C[C@H]1C	-0.1
C[C@H](CO)N1C[C@H](C)[C@H](CN(C)C)OCCCC[C@H](C)Oc2ccc(NS(=O)(=O)c3ccccc3)cc2C1=O	0.9

Arranged by molar mass (rising): part of the list above
SMILES	A1 apoptosis 2
CNC[C@H]1Oc2ccc(NS(=O)(=O)c3ccc(C)cc3)cc2C(=O)N([C@@H](C)CO)C[C@@H]1C	-1.1
Cc1noc(C)c1NC(=O)Nc1ccc2c(c1)CC(=O)N([C@@H](C)CO)C[C@@H](C)[C@H](CN(C)Cc1ccncc1)O2	-0.1
Cc1noc(C)c1NC(=O)Nc1ccc2c(c1)C(=O)N([C@H](C)CO)C[C@H](C)[C@@H](CN(C)C(=O)NC1CCCCC1)OCCCC[C@H](C)O2	-0.9
Cc1noc(C)c1S(=O)(=O)Nc1ccc2c(c1)C(=O)N([C@H](C)CO)C[C@H](C)[C@@H](CN(C)S(=O)(=O)c1c(C)noc1C)OCCCC[C@@H](C)O2	0.0

Among those listed so far, two have a halogen:
SMILES	A1 apoptosis 2
C[C@@H]1CN([C@@H](C)CO)C(=O)Cc2cc(NC(=O)c3ccncc3)ccc2O[C@@H]1CN(C)Cc1ccc(Cl)c(Cl)c1	-1.0
C[C@H](CO)N1C[C@H](C)[C@@H](CN(C)C(=O)Nc2ccc(C(F)(F)F)cc2)Oc2c(NC(=O)Nc3ccccc3)cccc2C1=O	1.4

Continued.
SMILES	A1 apoptosis 2
Cc1noc(C)c1NC(=O)Nc1cccc2c1O[C@H](CN(C)Cc1ccccc1)[C@H](C)CN([C@H](C)CO)C2=O	0.6
COC(=O)c1cn(-c2cccc(N)c2)nn1	0.4
COc1ccc(CN(C)C[C@@H]2Oc3ccc(NC(=O)C4CC4)cc3C(=O)N([C@@H](C)CO)C[C@@H]2C)cc1	0.4
COc1ccc(S(=O)(=O)Nc2ccc3c(c2)C(=O)N([C@H](C)CO)C[C@@H](C)[C@H](CN(C)S(=O)(=O)c2ccc(OC)cc2)O3)cc1	-0.4
O=C(N/N=C/c1ccc(O)c2ccccc12)c1ccccc1O	-7.4
C[C@H](CO)N1C[C@H](C)[C@@H](CN(C)S(=O)(=O)c2ccc(Cl)cc2)Oc2ccc(NS(=O)(=O)c3ccc(F)cc3)cc2C1=O	-0.7
COc1ccc(NC(=O)Nc2cccc3c2O[C@H](CN(C)S(C)(=O)=O)[C@@H](C)CN([C@@H](C)CO)C3=O)cc1	-1.7
Cc1cc(C(=O)Nc2cccc3c2O[C@H](CN(C)S(=O)(=O)c2cccs2)[C@H](C)CN([C@H](C)CO)C3=O)n(C)n1	-1.3
C[C@@H]1CN([C@H](C)CO)C(=O)c2cccc(NS(=O)(=O)c3ccccc3)c2O[C@@H]1CN(C)C(=O)NC1CCCCC1	2.0
C[C@H]1CN([C@@H](C)CO)C(=O)Cc2cc(NS(=O)(=O)c3cccs3)ccc2O[C@H]1CN(C)S(C)(=O)=O	-1.3
C[C@@H]1CN([C@@H](C)CO)C(=O)c2cccc(NC(=O)C3CCOCC3)c2O[C@@H]1CN(C)C(=O)Nc1cccc2ccccc12	-0.5
Cc1noc(C)c1NC(=O)Nc1ccc2c(c1)C(=O)N([C@H](C)CO)C[C@@H](C)[C@@H](CN(C)S(=O)(=O)c1ccccc1)O2	0.0
CC(C)NC(=O)N(C)C[C@H]1Oc2ccc(NS(=O)(=O)c3ccc(F)cc3)cc2CC(=O)N([C@@H](C)CO)C[C@H]1C	-0.4
C[C@H]1CCCCO[C@@H](CN(C)C(=O)Nc2ccc3c(c2)OCO3)[C@@H](C)CN([C@@H](C)CO)C(=O)c2cc(NC(=O)Nc3ccc(C(F)(F)F)cc3)ccc2O1	-0.6
C[C@@H]1CN([C@H](C)CO)C(=O)Cc2cc(NC(=O)NC3CCCCC3)ccc2O[C@@H]1CN(C)C	0.0
Cc1cc(C(=O)Nc2cccc3c2O[C@H](CN(C)C(=O)Nc2ccccc2)[C@@H](C)CN([C@H](C)CO)C3=O)n(C)n1	1.2
C[C@H](CO)N1C[C@H](C)[C@@H](CN(C)S(=O)(=O)c2ccc(F)cc2)Oc2c(NS(C)(=O)=O)cccc2C1=O	-1.2
C[C@H]1CN([C@@H](C)CO)C(=O)c2cccc(NC(=O)C3CCCCC3)c2O[C@@H]1CN(C)Cc1ccc(C(=O)Nc2ccccc2N)cc1	-0.4
CNC[C@H]1Oc2ccc(NC(=O)CCC(F)(F)F)cc2C(=O)N([C@@H](C)CO)C[C@H]1C	0.2
[N-]=[N+]=NCc1ccccc1C[C@@]1(C(=O)NCC(O)CO)N=C(c2ccc(OCCCO)cc2)O[C@@H]1c1ccccc1 (stereo partly drawn)	5.9*
Cc1noc(C)c1NC(=O)N(C)C[C@H]1Oc2c(NS(=O)(=O)c3ccccc3)cccc2C(=O)N([C@@H](C)CO)C[C@@H]1C	-0.1
COC(=O)CCCCCCC(=O)N/N=C/CCCC1OCC(C)(C)CO1	2.0
C[C@H](CO)N1C[C@H](C)[C@H](CN(C)Cc2ccccc2)Oc2ccc(NS(=O)(=O)c3cn(C)cn3)cc2C1=O	1.1
C[C@@H]1CN([C@H](C)CO)C(=O)Cc2cc(NS(=O)(=O)c3ccc(F)cc3)ccc2O[C@H]1CN(C)Cc1ccc(Oc2ccccc2)cc1	-1.0
CC(C)NC(=O)Nc1ccc2c(c1)C(=O)N([C@@H](C)CO)C[C@@H](C)[C@H](CN(C)Cc1ccccc1)OCCCC[C@H](C)O2	-0.2
C[C@H](CO)N1C[C@H](C)[C@@H](CN(C)Cc2ccc(Cl)c(Cl)c2)Oc2ccc(NS(=O)(=O)c3ccc(F)cc3)cc2C1=O	0.4
O=C(C1=C[C@@H](C2CCCCC2)C[C@@H](OCCCCO)O1)N1CCN(Cc2ccccc2)CC1	0.9
C[C@@H]1CN([C@@H](C)CO)C(=O)c2cccc(NS(=O)(=O)c3cn(C)cn3)c2O[C@@H]1CN(C)C(=O)Nc1ccc2c(c1)OCO2	0.5
COCCOC(=O)N1C(=O)[C@@]2(c3ccccc31)[C@H](C(=O)Nc1nc3ccccc3s1)[C@H]1C(=O)O[C@H](c3ccccc3)[C@H](c3ccccc3)N1[C@@H]2c1ccccc1OCCO	0.6
C[C@H]1CN([C@@H](C)CO)C(=O)Cc2cc(NC(=O)Cc3cn(C)c4ccccc34)ccc2O[C@H]1CN(C)S(=O)(=O)c1ccccc1	1.5
Cc1noc(C)c1S(=O)(=O)N(C)C[C@H]1OCCCC[C@@H](C)Oc2ccc(NS(C)(=O)=O)cc2C(=O)N([C@H](C)CO)C[C@@H]1C	-0.2
Cc1noc(C)c1S(=O)(=O)Nc1ccc2c(c1)C(=O)N([C@@H](C)CO)C[C@H](C)[C@H](CN(C)Cc1ccccc1)O2	-0.6
COc1cc(/C=N/NC(=O)c2ccccn2)ccc1O	-7.8
COc1ccc(NC(=O)N(C)C[C@@H]2Oc3c(NC(=O)c4cc(C)nn4C)cccc3C(=O)N([C@@H](C)CO)C[C@@H]2C)cc1	-0.6
Cc1noc(C)c1NC(=O)Nc1cccc2c1O[C@@H](CN(C)C(=O)Nc1ccc(F)cc1)[C@@H](C)CN([C@@H](C)CO)C2=O	-0.5
C[C@@H]1CN([C@@H](C)CO)C(=O)c2cccc(NC(=O)c3ccncc3)c2O[C@H]1CN(C)Cc1ccncc1	-0.7

Of the compounds above, two have a thiophene ring, fused or not.
SMILES	A1 apoptosis 2
Cc1cc(C(=O)Nc2cccc3c2O[C@H](CN(C)S(=O)(=O)c2cccs2)[C@H](C)CN([C@H](C)CO)C3=O)n(C)n1	-1.3
C[C@H]1CN([C@@H](C)CO)C(=O)Cc2cc(NS(=O)(=O)c3cccs3)ccc2O[C@H]1CN(C)S(C)(=O)=O	-1.3

(listing goes on)
SMILES	A1 apoptosis 2
Cc1cc(C(=O)Nc2cccc3c2O[C@@H](CN(C)C(=O)NC2CCCCC2)[C@H](C)CN([C@H](C)CO)C3=O)n(C)n1	-0.3
Cc1ccc(/C=N/NC(=O)CCCCCCC(=O)Nc2ccccc2O)o1	1.1
C[C@H](CO)N1C[C@H](C)[C@H](CN(C)Cc2ccncc2)OCCCC[C@H](C)Oc2ccc(NC(=O)CCC(F)(F)F)cc2C1=O	-1.6
C[C@H]1CN([C@@H](C)CO)C(=O)c2cccc(NS(C)(=O)=O)c2O[C@@H]1CN(C)CC1CC1	-0.8
C=CCOC(=O)[C@H]1[C@@H]2C(=O)O[C@@H](c3ccccc3)[C@@H](c3ccccc3)N2[C@@H](c2ccc(OCCOC(=O)[C@@H]3C[C@@H]4C(=O)N5CCC[C@H]5C(=O)N4[C@@H]3c3cccc(OCCO)c3)cc2)[C@]12C(=O)Nc1ccc(I)cc12	0.6
CNC(=O)C1=C[C@@H](c2csc3ccccc23)C[C@@H](OCc2ccc(CO)cc2)O1	-1.1
C[C@H]1CCCCO[C@H](CN(C)Cc2ccccc2)[C@@H](C)CN([C@@H](C)CO)C(=O)c2cc(NC(=O)CCCN(C)C)ccc2O1	1.5
Cc1ccc(S(=O)(=O)Nc2cccc3c2O[C@H](CN(C)S(=O)(=O)c2cccs2)[C@@H](C)CN([C@H](C)CO)C3=O)cc1	-1.8
Cc1noc(C)c1NC(=O)Nc1cccc2c1O[C@@H](CN(C)Cc1ccc(Oc3ccccc3)cc1)[C@@H](C)CN([C@H](C)CO)C2=O	-0.3
Cc1noc(C)c1S(=O)(=O)Nc1ccc2c(c1)CC(=O)N([C@@H](C)CO)C[C@@H](C)[C@H](CN(C)C(=O)Nc1ccccc1)O2	-1.5
Cc1ccc(S(=O)(=O)N(C)C[C@H]2Oc3c(NS(C)(=O)=O)cccc3C(=O)N([C@@H](C)CO)C[C@@H]2C)cc1	0.2
C[C@H]1CCCCO[C@H](CN(C)CC2CCCCC2)[C@@H](C)CN([C@@H](C)CO)C(=O)c2cc(NS(C)(=O)=O)ccc2O1	-0.1
Cc1noc(C)c1S(=O)(=O)Nc1ccc2c(c1)CC(=O)N([C@@H](C)CO)C[C@H](C)[C@@H](CN(C)S(=O)(=O)c1ccc(F)cc1)O2	0.3
C[C@@H]1CN([C@@H](C)CO)C(=O)c2cc(NS(C)(=O)=O)ccc2O[C@H]1CN(C)C(=O)NC1CCCCC1	-1.5
C[C@H]1CN([C@@H](C)CO)C(=O)CCCn2cc(nn2)CO[C@H]1CN(C)C(=O)Nc1ccc2c(c1)OCCO2	1.2
COc1ccc(NC(=O)Nc2ccc3c(c2)C(=O)N([C@H](C)CO)C[C@@H](C)[C@H](CN(C)S(=O)(=O)c2ccccc2)O3)cc1	1.3
C[C@@H]1CN([C@H](C)CO)C(=O)c2cccc(NC(=O)C3CCOCC3)c2O[C@@H]1CN(C)CC1CCCCC1	0.6
C[C@@H]1CCCCO[C@@H](CN(C)Cc2ccncc2)[C@@H](C)CN([C@@H](C)CO)C(=O)c2cc(NS(=O)(=O)c3ccc(Cl)cc3)ccc2O1	0.0
C[C@@H]1CN([C@H](C)CO)C(=O)c2cc(NC(=O)C3CC3)ccc2O[C@H]1CN(C)C(=O)NC1CCCCC1	-1.0
COc1ccc(CN(C)C[C@@H]2Oc3ccc(NC(=O)Nc4ccc(OC)cc4)cc3C(=O)N([C@@H](C)CO)C[C@H]2C)cc1	-0.2
O=C(N/N=C/c1cc(O)ccc1[N+](=O)[O-])c1ccccn1	-1.9
COc1ccc(S(=O)(=O)N(C)C[C@H]2Oc3ccc(N(C)C)cc3CC(=O)N([C@H](C)CO)C[C@@H]2C)cc1	0.4
C[C@H](CO)N1C[C@H](C)[C@@H](CN(C)Cc2ccncc2)OCCCC[C@H](C)Oc2ccc(NS(=O)(=O)c3ccccc3)cc2C1=O	0.1
CC(C)NC(=O)N(C)C[C@H]1OCCCC[C@@H](C)Oc2ccc(NS(C)(=O)=O)cc2C(=O)N([C@H](C)CO)C[C@H]1C	0.1
COc1ccc(CN(C)C[C@H]2Oc3ccc(NS(=O)(=O)c4ccc(Cl)cc4)cc3C(=O)N([C@@H](C)CO)C[C@@H]2C)cc1	0.2
C[C@H](CO)N1C[C@H](C)[C@H](CN(C)S(=O)(=O)c2cccs2)Oc2ccc(NC(=O)c3ccncc3)cc2CC1=O	0.1

These rows are one share of the data; rates above refer to the full screens.
